Screens (PubChem BioAssay)
SARS PLpro yeast: SARS-CoV PLP inhibition in yeast; Potency, µM (titrated, usually from 32.9 µM), inactives show at the highest dose activity, positive = growth rescue; S. cerevisiae expressing SARS-CoV PLpro, growth rescue; control for the full effect not named in the record; 0.19% of 330,000 active; AID 485353; active means well fitted rising curve with a large enough effect; inconclusive means small, poorly fitted or top-dose-only effect; inactive means no such curve, though single readings can be large or run the other way; further: 0% is about no effect; nearly all actives have a fitted effect of over 55% in size; growth read by luminescence after 48 h
StopGo reporter: FMDV 2A StopGo reporter, luciferase signal | human cells with a luciferase reporter of 2A StopGo recoding; control for the full effect not named in the record | AID 1159524 | Potency, µM (series often up to 57.9 µM), for inactives: at the highest dose signal change, negative = less light | 1.2% of 410,000 active; active = well fitted falling curve with a large enough effect; inconclusive = small, poorly fitted or top-dose-only effect; inactive = no such curve, though single readings can be large or run the other way; tested in HEK293T cells; further: on the % scale 0 is the no-effect control and ±100 the full control effect; nearly all actives have a fitted effect of over 45% in size; luciferase light after 4 h
NS1 function inh: inhibitors of influenza NS1 protein function; 0.4% of 270,000 active; S. cerevisiae slowed by influenza A NS1, growth recovery by OD600; AID 2326; Potency, µM (doses to about 46.1 µM), without a hit: at the highest dose activity, positive = more growth; active means well fitted rising curve with a large enough effect; inconclusive means small, poorly fitted or top-dose-only effect; inactive means no such curve, though single readings can be large or run the other way; further: nearly all actives have a fitted effect of over 50% in size
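A cell-based growth assay was used: compounds that relieve NS1-induced slow growth of budding yeast raise OD600. Assay medium was yeast nitrogen base with ammonium sulphate and -URA supplement, pH 6.0, with 2% galactose.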
Marburg entry inh: inhibitors of Marburg virus binding or cell entry; Marburg virus pseudotyped entry inhibition, cell reporter; control for the full effect not named in the record; about a third of the inactives were read at about 46 µM; 1.8% of 300,000 active; Potency, µM (top dose mostly 37.8 µM), for inactives: top-dose activity change, negative = inhibition, usual class: inhibitors; AID 540276; active = well fitted inhibition curve with a large enough effect; inconclusive = small, poorly fitted or top-dose-only effect, or effect the other way; inactive = flat fitted curve, though single readings scatter; tested in HEK293 cells; about a fifth of its hits are not listed in these tables; further: on the % scale 0 is the no-effect control and ±100 the full control effect; luciferase read-out
Cruzain inh noDet: cruzain (T. cruzi) inhibition without detergent; purified cruzain, Z-FR-AMC fluorescence, no detergent; AID 1476; 2.3% of 200,000 active; P25779; Potency, µM, for the others: max response, negative = inhibition, most hits filed as inhibitors;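 further: plate controls were enzyme without inhibitor for no effect and buffer without enzyme for full effect; nearly all actives have a fitted effect of over 40% in size; top concentration of the series not given in the record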
Target sequence (P25779 123-467 limits assumed): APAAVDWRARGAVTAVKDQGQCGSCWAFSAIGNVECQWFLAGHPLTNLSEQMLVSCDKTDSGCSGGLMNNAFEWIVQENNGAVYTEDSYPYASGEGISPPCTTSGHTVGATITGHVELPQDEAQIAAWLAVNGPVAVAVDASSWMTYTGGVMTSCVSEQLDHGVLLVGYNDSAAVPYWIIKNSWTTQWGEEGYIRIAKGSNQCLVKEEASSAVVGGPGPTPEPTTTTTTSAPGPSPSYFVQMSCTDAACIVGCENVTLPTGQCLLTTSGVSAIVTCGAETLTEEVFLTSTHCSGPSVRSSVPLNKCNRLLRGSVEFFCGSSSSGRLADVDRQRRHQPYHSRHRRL
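Purified cruzain at 1.5 nM, pre-incubated 15 min with compound at room temperature in 100 mM sodium acetate pH 5.5, 5 mM DTT, 0.00005% Triton X-100. Reaction started with 2 uM Z-FR-AMC; AMC fluorescence increase over 60 s gives rate.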
Cruzain inh Det: blocks cruzain activity in presence of Triton detergent. purified cruzain, Z-FR-AMC fluorescence, 0.01% Triton. Potency, µM, inactives show max response, negative = inhibition, actives largely listed as inhibitors. 0.43% of 200,000 active. AID 1478;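 further: plate controls were neutral wells for no effect and buffer without enzyme for full effect; nearly all actives have a fitted effect of over 40% in size; top concentration of the series not given in the record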
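Compounds were screened in titration against cruzain (1.5 nM) with 0.01% Triton X-100 to counter colloidal aggregation. Activity was the AMC fluorescence increase over 60 s after adding 2 uM Z-FR-AMC at pH 5.5.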
LASV entry inh: blocks Lassa virus binding to or entry into cells; Lassa virus pseudotype entry inhibition, cell reporter; control for the full effect not named in the record; 1.2% of 300,000 active; Potency, µM (highest dose often 37.9 µM), for the others: top-dose activity change, negative = inhibition, hits mostly inhibitors; AID 540256; active means well fitted inhibition curve with a large enough effect; inconclusive means small, poorly fitted or top-dose-only effect, or effect the other way; inactive means flat fitted curve, though single readings scatter; tested in HEK293 cells; further: on the % scale 0 is the no-effect control and ±100 the full control effect; nearly all actives have a fitted effect of over 50% in size; luciferase read-out
RE007 growth inh: less growth of the S. pombe RE007 Vpr strain; S. pombe RE007 Vpr strain, BacTiter-Glo ATP luminescence, 24 h; control for the full effect not named in the record; AID 651644; 0.21% of 360,000 active; Potency, µM (highest dose often 92.2 µM), for inactives: at the highest dose activity change, negative = less growth; active = well fitted falling curve with a large enough effect; inconclusive = small, poorly fitted or top-dose-only effect; inactive = no such curve, though single readings can be large or run the other way;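 further: on the % scale 0 is the no-effect control and ±100 the full control effect; nearly all actives have a fitted effect of over 50% in size; the assay follows cell death caused by Vpr and the record does not say whether a fall means rescue or toxicity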
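Fission yeast RE007 carrying one integrated HIV-1 vpr copy, seeded at OD 0.01 in PMG+AL medium with 23 nL pinned compound. Grown 24 h at 30 degrees; viability read by BacTiter-Glo luminescence after 5 min.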
Numbers without * were called inactive; ? = inconclusive; nt = not tested or not shown; & = joins results of further samples; [ ] = another dose, or the depositor's remark. Unless noted, the call rests on the fitted dose curve; in most records, active means well fitted curve in the direction sought with a large enough effect; inconclusive means small, poorly fitted or top-dose-only effect, or another doubt; inactive means no such curve, though single readings can be large; an effect the other way counts as inactive or inconclusive. Potency means the concentration at half of the fitted maximal effect.

SMILES | SARS PLpro yeast | StopGo reporter | NS1 function inh | Marburg entry inh | Cruzain inh noDet | Cruzain inh Det | LASV entry inh | RE007 growth inh
O=C(Nc1ccc(F)cc1F)C1CCCN1S(=O)(=O)c1cccc2nsnc12 (stereo not drawn) | 4% | 1%&-23% | -3% | -19%&-19%[46.1 µM] | -5% | -0.6% | 15%[46.1 µM] | -11%
CCc1nnc(NC(=O)c2ccc(S(=O)(=O)N3CCCc4ccccc43)cc2)o1 | 20µM* | nt | -85% | ? | ? | -2.0% | ? | -9%
Cc1cc(NC(=O)c2ccc(C)s2)n(-c2nc3ccccc3[nH]2)n1 | 4% | 13% | 21% | 10% | -2% | -6.2% | 9% | -4%
CCOC(=O)N1CCN(C2CCCN(C(=O)c3ccccc3N(C)C)C2)CC1 (stereo not drawn) | 2% | -28% | -1% | 14% | nt | nt | 0% | -10%
O=C(COn1nnc2ccc(S(=O)(=O)N3CCOCC3)cc21)Nc1c(F)c(F)c(F)c(F)c1F | 0% | 24% | 5% | nt | nt | nt | nt | -1%
O=C(CCOc1ccccc1)NCc1ccccc1 | 2% | 7% | -5% | ? | 5% | -5.3% | 3% | -16%
CC(OC(=O)Cc1n[nH]c(=O)c2ccccc12)C(=O)Nc1ccc(Cl)cn1 (stereo not drawn) | -4% | ? | -12% | -13% | nt | nt | -28% | 2%
COCc1c(Br)c(C)nc(OCC(=O)N/N=C/c2cc(C)n(-c3ccc([N+](=O)[O-])cc3)c2C)c1C#N | -4% | -12% | 7% | ? | 32µM* | -3.3% | ? | 15%
COC(=O)c1ccccc1Oc1cnc2ccccc2n1 | 17% | 8% | 1% | -23% | nt | nt | ? | 62%
CCOC(=O)c1c(CN2CCC(C)CC2)n(C)c2cc(Br)c(OC)cc12 | 2% | -17% | -2% | -26%[46.1 µM] | nt | nt | 16%[46.1 µM] | -21%
COc1cc(/C=N/NC(=O)c2ccc(Cn3cc([N+](=O)[O-])cn3)o2)cc(Br)c1O | 0% | -20% | -2% | 3%[14.2 µM] | nt | nt | -1% | -22%
COc1cccc(C(=O)NCC(=O)OCc2ccc(F)cc2Cl)c1 | 4% | 6% | -20% | 7% | -10% | -20% | ? | 0%
CCCCCOC(=O)Cc1c(C)nc(-c2ccccc2)[nH]c1=O | -3% | 0% | 1% | 2%&2% | 13% | 0.8% | 29% | 12%
COc1ccccc1C(=O)Nc1cccc2nc(C)ccc12 | 14% | -6% | -9% | ? | nt | nt | -3% | 1%
Cc1ccc(NC(=O)CC2SC3=NCCN3C2=O)cc1 (stereo not drawn) | -94% | 18% | 1% | 10% | 14% | -1.5% | 11% | 5µM*
COC(=O)c1ccc(/C=N/N2C(C)CCCC2C)cc1 (stereo not drawn) | 0% | 9% | 3% | ? | nt | nt | -13%[46.1 µM] | -13%
CCCC(=O)N1CCN(c2ccc(NC(=S)NC(=O)c3cccc(C)c3)cc2)CC1 | 0% | 16µM* | 3% | ? | nt | nt | ? | 9%
CC(C)(C)c1cc(Cc2ccccc2)[nH]n1 | -2% | 13% | -64% | -2% | 5% | 3.0% | 1% | -12%
COCCN(C(=O)COC(=O)CC(C)c1ccccc1)c1c(N)n(Cc2ccccc2)c(=O)[nH]c1=O (stereo not drawn) | -1% | -16% | nt | -1%[46.1 µM] | nt | nt | 11% | 2%
COc1ccc(N2CCN(Cc3cc(=O)oc4cc(-c5ccccc5)c(O)cc34)CC2)cc1 | 0% | 0% | 10% | ? | ? | -0.4% | -25% | 26%

6 records drawn at random from the list so far:
SMILES | SARS PLpro yeast | StopGo reporter | NS1 function inh | Marburg entry inh | Cruzain inh noDet | Cruzain inh Det | LASV entry inh | RE007 growth inh
COc1ccccc1C(=O)Nc1cccc2nc(C)ccc12 | 14% | -6% | -9% | ? | nt | nt | -3% | 1%
COc1cc(/C=N/NC(=O)c2ccc(Cn3cc([N+](=O)[O-])cn3)o2)cc(Br)c1O | 0% | -20% | -2% | 3%[14.2 µM] | nt | nt | -1% | -22%
COc1ccc(N2CCN(Cc3cc(=O)oc4cc(-c5ccccc5)c(O)cc34)CC2)cc1 | 0% | 0% | 10% | ? | ? | -0.4% | -25% | 26%
COC(=O)c1ccc(/C=N/N2C(C)CCCC2C)cc1 (stereo not drawn) | 0% | 9% | 3% | ? | nt | nt | -13%[46.1 µM] | -13%
CCCC(=O)N1CCN(c2ccc(NC(=S)NC(=O)c3cccc(C)c3)cc2)CC1 | 0% | 16µM* | 3% | ? | nt | nt | ? | 9%
CC(C)(C)c1cc(Cc2ccccc2)[nH]n1 | -2% | 13% | -64% | -2% | 5% | 3.0% | 1% | -12%

New compounds follow:
SMILES | SARS PLpro yeast | StopGo reporter | NS1 function inh | Marburg entry inh | Cruzain inh noDet | Cruzain inh Det | LASV entry inh | RE007 growth inh
COc1ccc(N2CCN(C(=O)c3ccc(S(=O)(=O)N4CCOCC4)cc3)CC2)cc1 | -3% | -7% | -8% | 4% | ? | 1.1% | -28%[14.3 µM] | -11%
COc1ccc(NC(=O)c2cccc(N3C(=O)C4CC=C(C)CC4C3=O)c2)c(OC)c1 (stereo not drawn) | -1% | -13% | 0% | ? | nt | nt | -1%[46.1 µM] | -28%
CC(C)Cn1c(C2CC(=O)N(c3ccccc3Cl)C2)nc2ccccc21 (stereo not drawn) | nt | -13% | nt | ? | -3% | -4.2% | -16%[46.1 µM] | nt
CCOC(=O)c1c(C)oc2ncnc(Nc3cc(C)cc(C)c3)c12 | nt | -12% | nt | nt | -8% | -0.1% | 12%[46.1 µM] | nt
Cc1cc2nnc(SCC(=O)N(C)C3CCS(=O)(=O)C3)n2c2ccccc12 (stereo not drawn) | 2% | -8% | 3% | 10% | nt | nt | 2% | -6%
CCc1ccc(N2C(=O)Cc3c2nc(N)c(C#N)c3N)cc1 | -7% | 71%[activator] | 16% | 18% | 1% | -0.3% | 22%[14.3 µM] | -13%
O=C(Nn1cnc2ccccc2c1=O)c1ccc(F)cc1Cl | 0% | nt | -6% | 8% | -9% | -1.0% | 27% | -7%
CC(C)CCC1(CCNC(=O)c2cccs2)CCOC(C)(C)C1 (stereo not drawn) | -2% | -12% | -10% | ? | nt | nt | ? | 13%
CCOC(=O)C(=O)Nc1nc(-c2ccccc2)c(-c2ccccc2)o1 | -5% | -15% | -12% | ? | -4% | -6.8% | 1% | -9%
COC(=O)C(CCSC)NC(=O)CNS(=O)(=O)c1ccc(Br)cc1 (stereo not drawn) | 6% | -25% | 11% | 2% | -6% | 9.2% | 6% | 7%
COc1ccc(OC)c(S(=O)(=O)N2CCCC(C(=O)NCc3ccco3)C2)c1 (stereo not drawn) | -2% | -20% | 8% | -1%[46.1 µM] | nt | nt | 6% | -8%
O=C(CSc1nc2c(oc3ccccc32)c(=O)n1CC1CCCO1)NCc1ccc(F)cc1 (stereo not drawn) | 8% | -12% | nt | ? | nt | nt | ? | -17%
O=C(Nc1ccc2c(c1)OCO2)N1CCOCC1 | -3% | 26% | -2% | 17% | 3% | 7.4% | 0% | -15%
CCOc1ccc2c(c1)cc(CN(C(=O)CC)C1CCCCC1)c1nnnn12 | -5% | -29% | -16% | ? | ? | -6.4% | -1% | -1%
CCOC(=O)C1CCN(C(=O)C2CC(=O)N(c3ccc(C)cc3)C2)CC1 (stereo not drawn) | 0% | nt | 2% | 7% | -3% | 0.5% | 19% | 2%
CN(c1ccccc1)S(=O)(=O)c1cccc(NC(=O)C2CC(=O)N(Cc3ccccc3)C2)c1 (stereo not drawn) | -5% | ? | -7% | nt | nt | nt | nt | 11%
CCOC(=O)C1CCN(C(=O)c2cc(OCC)c(OCC)c(OCC)c2)CC1 | -1% | -11% | -6% | -4% | 29% | -0.4% | -9% | 27%
N#CCCN(C(=O)COC(=O)C1CCN(S(=O)(=O)c2ccc3c(c2)OCCO3)CC1)c1ccccc1 | 0% | -17% | nt | 19% | nt | nt | -11% | 20%
CCOC(=O)C1CCCN(C(=O)Nc2c(-c3ccccc3)noc2C)C1 (stereo not drawn) | 0% | -3% | 1% | 3% | nt | nt | 9% | 2%
Cc1cc(OCC(=O)Nc2ccc(-c3nc4cc(Cl)ccc4o3)cc2)cc(C)c1Cl | nt | 17% | nt | nt | -3% | 0.4% | ? | nt
CCOc1ccccc1N(CC(=O)NC1CCCC1)C(=O)CCCC(=O)Nc1ccccn1 | 4% | 0% | -4% | 1%&1% | 0% | 5.7% | 0% | -2%
CC(C)(C)c1ccccc1NC(=O)c1cnn2c(C(F)F)cc(-c3ccccc3)nc12 | nt | 0% | nt | 19%[46.1 µM] | -11% | -13% | 25%[46.1 µM] | nt
Cc1nc(Cl)sc1C(=O)Nc1ccc2ccccc2c1 | -12% | 0% | -12% | ? | -21% | -10% | ? | -13%
Cc1c2cnn(CC(=O)N3CCC4(CC3)OCCO4)c(=O)c2c(C)n1Cc1cccc(Cl)c1 | -2% | -26% | 7% | -7%[46.1 µM] | nt | nt | -3%[46.1 µM] | 3%
Clc1cccc(N2CCNCC2)c1Cl | -7% | -25% | 14% | ? | -21% | 0.5% | 7% | 1%
Cn1nc(C(F)(F)F)c(C#N)c1N1CCN(c2ccc(F)cc2)CC1 | -32% | ? | -51% | -17% | 2% | -2.4% | -9% | -20%
Cc1ccc(SCC(=O)OC(C)C(=O)NC2(C#N)CCCCC2)cc1 (stereo not drawn) | 1% | -13% | nt | -15% | nt | nt | 0% | 1%
CCCCCN(C(=O)CCC(=O)OCc1cccc(F)c1)c1c(N)n(CCCC)c(=O)[nH]c1=O | 1% | -12% | nt | -6% | nt | nt | -24% | 2%

Rows are unselected; any-hit rate near 4.8%.
